# VDR inhibitor: blocks the human vitamin D receptor | P11473 | VDR-SRC2-3 peptide fluorescence polarization, 2 h | Potency, µM, inactives show max response, negative = inhibition, actives largely listed as inhibitors | 400,000 tested, 0.93% active; active means well fitted inhibition curve with a large enough effect; inconclusive means small, poorly fitted or top-dose-only effect, or another doubt; inactive means no such curve, though single readings can be large or run the other way; further: series mostly up to about 120 µM
# Target sequence (P11473 whole entry, looked up): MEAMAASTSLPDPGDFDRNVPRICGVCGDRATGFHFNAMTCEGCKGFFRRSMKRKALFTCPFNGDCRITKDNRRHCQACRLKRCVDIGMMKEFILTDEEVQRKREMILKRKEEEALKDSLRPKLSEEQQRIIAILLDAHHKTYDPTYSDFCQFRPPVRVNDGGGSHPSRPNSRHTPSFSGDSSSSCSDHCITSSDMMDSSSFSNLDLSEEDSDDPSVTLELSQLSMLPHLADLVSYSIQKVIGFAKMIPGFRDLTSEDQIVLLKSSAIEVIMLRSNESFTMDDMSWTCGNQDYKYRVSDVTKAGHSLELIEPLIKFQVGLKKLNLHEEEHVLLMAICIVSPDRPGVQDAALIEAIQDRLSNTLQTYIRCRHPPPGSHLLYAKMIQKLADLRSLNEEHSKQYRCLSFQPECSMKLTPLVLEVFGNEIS
#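 VDR–SRC2-3 interaction, FP format. Cmpds 23 nl via pintool, brief spin, 2 h ambient incubation.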
# * = called active by the depositor; ? = inconclusive; & = joins results of further samples. On the % scale 0 is the no-effect control and ±100 the full control effect; potency means the concentration at half of the fitted maximal effect. A portion of the library, so the mix of outcomes need not match the whole.
SMILES,VDR inhibitor
Cc1cccc(C(=O)NCC(c2cccs2)S(=O)(=O)c2cccs2)c1 (stereo not drawn),8%
CN1CCN(c2ccc(Cl)cc2NC(=O)C2COc3ccccc3O2)CC1 (stereo not drawn),3%
CCCn1c(C2CCCN2c2nc(-c3cccc(Br)c3)cs2)nc2cc(Cl)c(Cl)cc21 (stereo not drawn),-23%
Cc1c(C(=O)NCc2ccc(F)cc2)sc2nc(-c3ccc(F)cc3)cn12,-1%
Cc1ccc(-c2nc(NC(=O)c3ccc(S(=O)(=O)N(CCC#N)CCC#N)cc3)sc2-c2ccccc2)cc1,-10%
CC1CCC(=C(C#N)C(=O)Nc2cccc(Cl)c2)CC1 (stereo not drawn),0%
Cc1ccc(-c2nnn(CC(=O)N(c3cccc(F)c3)C(C(=O)NC(C)(C)C)c3ccco3)n2)o1 (stereo not drawn),10%
C=CCNS(=O)(=O)CC12CCC(CC1=O)C2(C)C (stereo not drawn),-7%
O=C(Nc1c[nH]c(=O)[nH]c1=O)c1ccccc1Br,8%
COc1nccnc1NS(=O)(=O)c1ccc(NC(=S)NC(=O)c2ccc(F)cc2)cc1,-6%
CCOC(=O)Cn1cnc2c(cnn2-c2ccc(OC)cc2)c1=O,-1%
CNC1=CC(=O)CC(c2ccccc2)C1 (stereo not drawn),5%

# Some of the entries above in a different format:
VDR inhibitor	SMILES
-23%	CCCn1c(C2CCCN2c2nc(-c3cccc(Br)c3)cs2)nc2cc(Cl)c(Cl)cc21 (stereo not drawn)
-1%	Cc1c(C(=O)NCc2ccc(F)cc2)sc2nc(-c3ccc(F)cc3)cn12

# Remaining list, next part.
SMILES,VDR inhibitor
COc1cc(C2CC(=O)Nc3c2c(C)nn3-c2nncc(-c3ccccc3)n2)cc(OC)c1OC (stereo not drawn),5%
Cc1cc(NC(=O)CSc2nc3c(cnn3-c3cccc(Cl)c3)c(=O)[nH]2)no1,10%
COC(=O)Cc1ccc(NC(=S)NNC(=O)c2ccccc2Br)cc1,-18%
O=C(OCC(=O)N1CCC(Cc2ccccc2)CC1)c1ccccc1,-12%
O=C(NC(=S)Nc1ccc(Br)cn1)c1cccs1,10%
CCc1ccc2c(c1)cc(CN(C(=S)Nc1ccccc1)C1CC1)c1nnnn12,-11%
Cc1noc(C)c1C(=O)NCCc1ccccc1,13%
Cc1ccc(S(=O)(=O)CC2CSc3nc(N)cc(=O)n32)cc1 (stereo not drawn),-16%
NC(=O)c1nc[nH]c1C(=O)Nc1cccc(NC(=O)c2cccc(C(F)(F)F)c2)c1,-10%
Cc1cccc(C)c1OCC(=O)Nn1c(=O)[nH]c2ccccc2c1=O,3%
O=C(COc1coc(CN2CCc3ccccc32)cc1=O)NCCc1ccccc1,-3%
O=C(NC1CCCCC1)C12CC3CC(CC(Cl)(C3)C1)C2,-13%
Cc1cccc(OCCCC(=O)NNC(=O)c2ccncc2)c1,-18%
O=c1n(Cc2ccccc2)nc2n1-c1ccccc1OC2,11%
Cc1ccc(S(=O)(=O)N2CC(C)N(C(=O)N3CCOCC3)C2)cc1 (stereo not drawn),-7%
O=c1cc(C=NNc2ccccc2)[nH]c(=O)[nH]1,?
CCOc1ccccc1CNC(=O)c1[nH]c2ccccc2c1Sc1ccccc1,7%
O=C(COC(=O)Cc1ccccc1F)Nc1ccccc1[N+](=O)[O-],?
CN1CCN(c2ccc(S(=O)(=O)N3CCCCC3)cc2NC(=O)c2cccc([N+](=O)[O-])c2)CC1,?
N#Cc1cccc(NC(=O)N2CC3(CCN(C(=O)c4cnccn4)CC3)C2)c1,-1%
CCN(c1ccccc1)S(=O)(=O)c1ccc(C(=O)NCC(c2cccs2)N(C)C)cc1 (stereo not drawn),9%
COc1cccc(NC(=O)c2c(-c3ccc(C)cc3)nnc3ccccc23)c1,-2%
O=C(CCc1ccccc1)Nc1nnc(-c2ccc3c(c2)OCCO3)o1,-1%
CCCCCC(=O)N1CCCC1,-15%
CC(=O)c1cccc(OCc2cc(C(=O)N3C[C@@H](C)O[C@@H](C)C3)no2)c1,-9%
COc1ccc(-c2oc3ncnc(NCCN4CCOCC4)c3c2-c2ccc(OC)cc2)cc1,12%
O=C1CN(/N=C\c2ccc([N+](=O)[O-])o2)C(=O)N1,-7%
COc1ccc(-c2csc(-n3ncc(-c4cccs4)c3N)n2)cc1,-2%
CC(=O)c1sc(NC(=O)C2CCCN2S(=O)(=O)c2ccccc2F)nc1C (stereo not drawn),9%
O=C(CN1CCOCC1)Nc1ccc(NC(=O)c2ccccc2F)cc1,-3%
Cc1ccsc1/C=N/NC(=O)CSCc1ccc(Cl)cc1,1%
Cc1cc(O)ccc1N1C(=O)c2cccc3cc([N+](=O)[O-])cc(c23)C1=O,-6%
CCN(CC(=O)N1CCCC1)S(=O)(=O)c1cc(C)ccc1OC,-5%
CCc1cccc(NC(=O)C2CCN(S(=O)(=O)c3ccc(Br)s3)CC2)c1,-7%
COc1ccc(CCn2c(C3CCCCC3)nc3c(c(=O)c4ccccc4n3C)c2=O)cc1,-9%
Clc1ccc(-n2nnc(-c3ncc[nH]3)n2)cc1Cl,-7%
CC(C)(C)NC(=O)NC(=O)CSc1nncs1,13%
COc1ccc(C(=O)NCc2ccco2)cc1S(=O)(=O)N1CCOCC1,13%
CCCn1c(Nc2nc3ccccc3n2C)nc2ccccc21,2%
CCc1ccccc1NC(=O)C(=O)NCC(c1cccnc1)N1CCN(c2ccccc2F)CC1 (stereo not drawn),4%
COC(=O)CCCC1=CC2=CC(=O)C(C)(OC(=O)c3cccs3)C(=O)C2=CN1C1CCCCC1 (stereo not drawn),0%
Cc1[nH]nc(-c2ccc(OCc3cnn(-c4ccccc4)c3)cc2O)c1Oc1ccc(Cl)cc1,-2%
Cc1cc(Cl)c(S(=O)(=O)N2CC(C)OC(C)C2)cc1OCC(N)=O (stereo not drawn),2%
COCCN1C(=O)c2ccccc2C(C(=O)NCCCN2CCCC2=O)C1c1c[nH]c2ccccc12 (stereo not drawn),-12%
O=C(O)CCCC(=O)Nc1ccccc1C(=O)N1CCCC1,-5%
Cn1nnnc1SCCNCc1ccncc1,3%
COc1cccc(-n2cc(C(=O)NCCc3ccc(C)cc3)c3ccccc3c2=O)c1,1%
O=C(CSc1nnc(-c2ccncc2)o1)Nc1ccccc1C(F)(F)F,-9%
COc1cc2ccccc2cc1C(=O)NC(=S)Nc1cc(C(=O)O)ccc1C,2%
O=S(=O)(c1ccc(Cl)cc1)N1CCN(c2ncccn2)CC1,-4%
COc1ccc(/C=C/C(=O)Nc2ccc(C)cc2)cc1,5%
CCOc1ccc(NCc2cccn2-c2nnc(N3CCC(C(=O)NCCCN4CCCCC4C)CC3)s2)cc1 (stereo not drawn),-11%
COC(=O)c1ccc(NC(=O)CN2CCOCC2)cc1,6%
Cc1cc(C)n(C(=O)CCCC(=O)n2nc(C)cc2C)n1,19%
CC(=O)Nc1cccc(-c2cn3ccccc3n2)c1,-24%
CC(=O)N1CCN(CC(C)(C)NS(=O)(=O)c2ccc(C)cc2)CC1,-1%
COC(=O)CSc1nc(NCC(C)C)nc(N2CCOCC2)n1,-12%
Cc1ccc(-c2csc(N(CCCN3CCOCC3)C(=O)c3ccco3)n2)cc1,11%
C=CCn1c(SCC(=O)Nc2ccc(N3CCOCC3)cc2)nnc1-c1ccncc1,-14%
O=c1[nH]c2cc3c(cc2cc1CN(CC1CCCO1)S(=O)(=O)c1ccccc1)OCCO3 (stereo not drawn),6%

# For reference, some entries already given.
SMILES,VDR inhibitor
CCc1ccccc1NC(=O)C(=O)NCC(c1cccnc1)N1CCN(c2ccccc2F)CC1 (stereo not drawn),4%
COC(=O)CCCC1=CC2=CC(=O)C(C)(OC(=O)c3cccs3)C(=O)C2=CN1C1CCCCC1 (stereo not drawn),0%
Cc1[nH]nc(-c2ccc(OCc3cnn(-c4ccccc4)c3)cc2O)c1Oc1ccc(Cl)cc1,-2%
Cc1cc(Cl)c(S(=O)(=O)N2CC(C)OC(C)C2)cc1OCC(N)=O (stereo not drawn),2%
COCCN1C(=O)c2ccccc2C(C(=O)NCCCN2CCCC2=O)C1c1c[nH]c2ccccc12 (stereo not drawn),-12%
O=C(O)CCCC(=O)Nc1ccccc1C(=O)N1CCCC1,-5%
Cn1nnnc1SCCNCc1ccncc1,3%
COc1cccc(-n2cc(C(=O)NCCc3ccc(C)cc3)c3ccccc3c2=O)c1,1%
O=C(CSc1nnc(-c2ccncc2)o1)Nc1ccccc1C(F)(F)F,-9%
COc1cc2ccccc2cc1C(=O)NC(=S)Nc1cc(C(=O)O)ccc1C,2%
O=S(=O)(c1ccc(Cl)cc1)N1CCN(c2ncccn2)CC1,-4%
COc1ccc(/C=C/C(=O)Nc2ccc(C)cc2)cc1,5%
CCOc1ccc(NCc2cccn2-c2nnc(N3CCC(C(=O)NCCCN4CCCCC4C)CC3)s2)cc1 (stereo not drawn),-11%
COC(=O)c1ccc(NC(=O)CN2CCOCC2)cc1,6%
Cc1cc(C)n(C(=O)CCCC(=O)n2nc(C)cc2C)n1,19%
CC(=O)Nc1cccc(-c2cn3ccccc3n2)c1,-24%
CC(=O)N1CCN(CC(C)(C)NS(=O)(=O)c2ccc(C)cc2)CC1,-1%
COC(=O)CSc1nc(NCC(C)C)nc(N2CCOCC2)n1,-12%

# More structures:
SMILES,VDR inhibitor
CCOC(=O)C1C(=O)NC(N2CCCCC2)=NC1c1ccccc1 (stereo not drawn),-3%
O=C(NCC(=O)N1CCCC1)c1ccc(Cl)cc1,3%
Cc1c(NC(=O)CN2C(=O)C(=O)c3ccccc32)c(=O)n(-c2ccccc2)n1C,-4%
CCCc1nc2ccccc2n2c(-c3cccc(C)c3)c3c(=O)n(C)c(=O)n(C)c3c12,-18%
CCC1CN(C(=O)Nc2cccc3c2CCCC3)c2cc(C)ccc2O1 (stereo not drawn),8%
Cc1ccc(NCc2nnc(SCC(=O)N3CCCc4ccccc43)o2)c(C)c1,4%
O=C(COC(=O)CSc1ccc(F)cc1)NCCCc1ccccc1,-15%
Cc1ccc(S(=O)(=O)NNC(=O)c2cccnc2)cc1,-12%
O=C(CSc1ccc(-c2ccccn2)nn1)N1CCCc2ccccc21,-3%
CC(=O)c1ccc(N2CCN(C(=O)C3CCN(S(=O)(=O)c4cccc5nonc45)CC3)CC2)cc1,-6%
Cc1ccsc1C1Nc2ccc3ncccc3c2C2=C1C(=O)CCC2 (stereo not drawn),8%
Cc1cc(N2CCOCC2)n2nc(C)c(-c3ccccc3)c2n1,-5%
COc1ccccc1Oc1ccc(-c2cnc3ccccc3n2)cc1[N+](=O)[O-],13%
O=C1NC(=O)N(Cc2ccccc2F)C1=O,-10%
CC(C)(C)OC(=O)N1CCC[C@H]1C(=O)OCC(=O)Nc1cc(S(C)(=O)=O)ccc1Cl,0%
COc1ccc(Cl)cc1NC(=O)c1noc(C)c1[N+](=O)[O-],6%
COc1ccc(-c2nn(CC(=O)Nc3ccccc3F)c3c2cnc2ccc(F)cc23)cc1,4%
COc1ccc(-c2c3c(=O)n(C)c(=O)n(C)c3cn2-c2cccc(N)c2)cc1,4%
CCOc1ccc(NC(=O)c2ccccc2OC)cc1,-11%
CCCOC(=O)Nc1cc(OC)ccc1[N+](=O)[O-],-7%
Cc1ccc(NC(=O)C2CCN(S(=O)(=O)c3c(C)n[nH]c3C)CC2)nc1,5%
CN(Cc1ccc(F)cc1)C(=O)c1ccc2c(c1)NC(=O)CS2,3%
O=C(CSc1ccccn1)N1CCOCC1,-16%
CC(C)[C@H](NS(=O)(=O)c1ccccc1)C(=O)OCC(=O)NC(=O)NC1CCCCC1,18%
CN(C)C(=O)CCc1ccc2c3c([nH]c2c1)[C@]1(CCc2ccccc2)[C@@H](C(=O)N2CCCCC2)C[C@H](CC(=O)NC(C)(C)C)C(=O)N1CC3,-13%
O=C(OCc1nc2ccccc2[n+]([O-])c1C(=O)c1ccccc1)c1ccco1,11%
C(=N\Nc1nc(-c2ccccc2)cs1)/c1cccnc1,6%
COC(=O)c1c(NC(=S)Nc2ccc(C(=O)N3CCOCC3)cc2)sc2c1CCC2,0%
CC(=O)c1ccc(OCCN2CCOCC2)cc1,-17%
COc1cccc(C2CC(c3cccs3)=NN2C(=O)CSc2nc3c(cnn3-c3ccc(F)cc3)c(=O)[nH]2)c1OC (stereo not drawn),23%
COc1ccc(/C=C2\SC(=S)N(CC(=O)Nc3nnc(C)s3)C2=O)cc1,-6%
COc1cc(/C(O)=C(\C#N)c2nc3ccccc3[nH]2)cc(OC)c1OC,5%
O=C(COc1ccc(F)cc1)Nc1ccc(S(=O)(=O)N(Cc2ccccc2)c2ccccc2)cc1,22%
O=C(NCC1CCCN1S(=O)(=O)c1ccccc1)C(=O)NC1CC1 (stereo not drawn),-7%
COc1ccccc1CNS(=O)(=O)c1ccc(-c2cnc(C3CC3)o2)cc1,-9%&21%
COc1ccccc1N1CCN(C(=O)c2cc(N3C(=O)C4C5CCC(C5)C4C3=O)ccc2Cl)CC1 (stereo not drawn),-27%
CCn1c(-c2ccc(C)cc2)nn(CC(=O)NCCc2ccccc2)c1=S,-24%
COc1ccc(CN2CCN(C(=O)c3ccc(CNS(=O)(=O)c4ccc(C)cc4)cc3)CC2)c(OC)c1OC,-3%
COc1cc(CN(CCN(C)C)Cc2ccccc2)ccc1OCc1ccccc1,-3%
COC(=O)[C@@]12CCCCN1[C@H](c1ccc(-c3ccccc3)cc1)[C@@H]1C(=O)N(C)C(=O)[C@@H]12,-20%
COC(=O)c1ccc(S(=O)(=O)NNC(=O)COc2ccc(C)cc2)cc1,-17%
Brc1ccc(-c2csc(N3CCc4ccccc4C3)n2)cc1,-19%
Cc1ccc(C(=O)NCCNC(=O)c2ccco2)cn1,16%
O=C(c1ccccc1)c1coc(-c2ccccc2)c1,1%
Cc1nc2ccccc2nc1N1CCCC1,8%
O=C(COc1ccccc1)N1CCN(C(=O)Cc2ccccc2)CC1,-2%
COc1ccc(-c2cc3cc(OC)c(OC)cc3c(C)n2)cc1,-8%
CC(=O)Nc1nc(CCN2C(=O)c3ccccc3C2=O)cs1,10%
